Bioassay records deposited in PubChem BioAssay by National Center for Advancing Translational Sciences (NCATS).
PINK1 expr mod: A Quantitative High throughput Screen to Identify Chemical Modulators of PINK1 Expression. PINK1 immunofluorescence, high-content cytometry, 24 h. Potency, µM (doses to about 76.6 µM), without a hit: top-dose activation (PINK1 increase), most hits filed as activators. hit rate 0.2% among 410,000; active = well fitted activation curve with a large enough effect; inconclusive = small, poorly fitted or top-dose-only effect; inactive = flat fitted curve, though single readings scatter; cell line not stated here;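 note: % of control where 0% means no effect; nearly all actives have a fitted effect of over 65% in size; a mitochondrial uncoupler was the plate control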
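Compound titrations (5 concentrations, 24 h) on a stable cell line; DMSO and CCCP controls. Endpoint: fixed-cell PINK1 immunofluorescence with mitochondrial, cell and nuclear markers, scanned by microplate cytometer.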
ClpP mod: qHTS Assay for Activators of ClpP; hit rate 1.9% among 340,000; Potency, µM (titrated, usually from 57.5 µM), for the others: top-dose activity change, negative = active; ATP-dependent Clp protease proteolytic subunit (Bacillus subtilis (strain 168)), P80244; purified B. subtilis ClpP, FRET peptide cleavage, 20 min; AID 651965, 2013; active = well fitted falling curve with a large enough effect; inconclusive = small, poorly fitted or top-dose-only effect; inactive = no such curve, though single readings can be large or run the other way; note: the source files actives as falling curves though it sought activators and does not explain the sign; nearly all actives have a fitted effect of over 65% in size; many hits overshoot -100%
Target sequence (P80244 whole entry, looked up): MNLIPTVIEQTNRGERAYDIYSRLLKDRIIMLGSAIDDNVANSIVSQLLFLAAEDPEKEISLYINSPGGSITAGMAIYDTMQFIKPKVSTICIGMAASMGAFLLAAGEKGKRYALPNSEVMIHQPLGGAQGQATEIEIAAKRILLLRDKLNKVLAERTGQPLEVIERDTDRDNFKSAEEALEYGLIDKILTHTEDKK
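Buffer: 100 mM Tris/HCl pH8, 100 mM KCl, 0.05% low protease BSA, 2.5% glycerol, 0.01% Tween-20. ClpP 10 microg/mL final; 20 min RT; delta FRET normalized to ADEP and DMSO controls.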
Active calls of the source: *; ? = inconclusive. Potency is the fitted concentration of half-maximal effect. The list is partial (hit frequency here may not be typical).

nr	structure	PINK1 expr mod	ClpP mod
1	CCc1cccc(NC(=O)C2CCCN2S(=O)(=O)c2ccc3nc(-c4ccccc4)[nH]c3c2)c1 (stereo not given)	1.1%	-22%
2	O=C(CN1CCN(Cc2ccccc2Cl)C1=O)NCCc1ccc(Cl)cc1	1.1%	0.0%
3	COCCCNC(=O)CCc1c(C)nc2nc(-c3cc(OC)cc(OC)c3)nn2c1C	0.2%	-0.6%
4	CCC(Sc1ncnc2sc3c(c12)CCCC3)C(=O)OCC(C)C (stereo not given)	-1.2%	0.2%
5	Cc1cc(C)nc(-n2nc(C)c3c2N(Cc2ccccc2C)C(=O)CC3c2ccc(Cl)cc2)n1 (stereo not given)	3.5%	-1.4%
6	Cc1ccc2c(c1)CC(C)N2S(=O)(=O)c1nnc(NC(=O)C(C)C)s1 (stereo not given)	4.9%	-1.0%
7	Cn1c(=O)c2sccc2n2c(CCCC(=O)NC3CCCCC3)nnc12	-1.2%	1.4%
8	Cc1nc2c(C(=O)NCCc3ccc(Cl)cc3)c[nH]n2c(=O)c1Cc1ccccc1F	1.4%	4.0%
9	CCOC(=O)c1c(C)[nH]c(C)c1S(=O)(=O)N1CCN(c2cccc(C(F)(F)F)c2)CC1	14%	-9.8%
10	Cc1c(Cl)cccc1NC(=O)C(C)n1c(=O)cc(C)c2c(C)nn(-c3ccccc3)c21 (stereo not given)	1.7%	-1.7%
11	COc1ccccc1CNC(=O)c1ccc(-c2nc(CS(=O)c3ccccc3)c(C)o2)cc1 (stereo not given)	-0.2%	-16%
12	CN(C)c1cc2c3ccccc3ccc2c2ccccc12	3.9%	4.0%
13	CCCCSc1nnc2n(-c3ccc(OC)cc3)c(=O)c3c4c(sc3n12)COC(C(C)C)C4 (stereo not given)	0.5%	-1.1%
14	Cc1nc2c(-c3ccccc3)c(C)nn2c(C)c1CCC(=O)NCc1ccccc1Cl	0.3%	-3.0%
15	Cn1c(=O)n(C)c2cc(N3CCOCC3)c(NC(=O)c3c(F)cccc3F)cc21	1.2%	-5.5%
16	O=C(NCCC1=CCCCC1)c1ccc2c(c1)ncn2-c1cccc(Cl)c1	1.2%	-1.4%
17	CCCCn1c(-c2ccc(C)cc2)c(C)n2c3c(=O)n(C)c(=O)n(C)c3nc12	-0.5%	-3.6%
18	CCN1CCc2c(sc(-n3cccc3)c2C(C)NC(=O)Nc2ccc(Br)cc2)C1 (stereo not given)	1.7%	1.0%
19	COC(=O)c1ccccc1NC(=O)c1ccc(-c2nc(CSc3ccc(C)cc3)c(C)o2)cc1	0.5%	-2.7%
20	Cc1c(O)nc(SCC(=O)Nc2ccc(Cl)cc2Cl)n(-c2ccc(F)cc2)c1=O	0.0%	-1.1%

Profiles, quoted from the list. Screens in order: PINK1 expr mod | ClpP mod
Cc1cc(C)nc(-n2nc(C)c3c2N(Cc2ccccc2C)C(=O)CC3c2ccc(Cl)cc2)n1 (stereo not given) is listed as 3.5% | -1.4%
Cn1c(=O)c2sccc2n2c(CCCC(=O)NC3CCCCC3)nnc12 is listed as -1.2% | 1.4%
Cc1nc2c(-c3ccccc3)c(C)nn2c(C)c1CCC(=O)NCc1ccccc1Cl is listed as 0.3% | -3.0%
CCc1cccc(NC(=O)C2CCCN2S(=O)(=O)c2ccc3nc(-c4ccccc4)[nH]c3c2)c1 (stereo not given) is listed as 1.1% | -22%
CCOC(=O)c1c(C)[nH]c(C)c1S(=O)(=O)N1CCN(c2cccc(C(F)(F)F)c2)CC1 is listed as 14% | -9.8%

Other compounds.
nr	structure	PINK1 expr mod	ClpP mod
21	COc1ccc(NC(=O)CCc2nc3cccnc3n2-c2ccccc2)cc1Cl	0.6%	1.3%
22	CC(C)(C)OC(=O)N1CCC(c2c(C(=O)NCCN3CCOCC3)cnn2-c2ccc(F)cc2F)CC1	-0.9%	1.1%
23	CCC(=O)N1CCc2cc(S(=O)(=O)NC(C(=O)NCCc3ccc(Cl)cc3)C(C)C)ccc21 (stereo not given)	0.5%	3.1%
24	Cc1ccc(CCNC(=O)c2ccc(CS(=O)(=O)c3ccc(Cl)cc3)o2)cc1	-0.1%	3.0%
25	COc1ccc(C2CC(=O)Nc3c2c(=O)[nH]c2nc4ccccc4n32)cc1 (stereo not given)	0.7%	?
26	COc1cc(CN(C(=O)c2ccc(C)cc2)C2CCS(=O)(=O)C2)cc(OC)c1OC (stereo not given)	1.4%	-1.0%
27	Cc1cc(SCC(=O)NCc2ccc(Cl)cc2)nc(=O)[nH]1	0.3%	-3.6%
28	Cc1noc(C)c1S(=O)(=O)N(CC(=O)Nc1ccc(F)cc1F)c1ccc(C(C)C)cc1	5.8%	1.5%
29	O=C(NCc1cccc(Cl)c1)C1CCN(C(=O)c2sccc2-n2cccc2)CC1	-0.1%	0.5%
30	O=C(c1ccc(Br)cc1)N(Cc1ccco1)c1ccccn1	-1.1%	-3.2%
31	S=c1nc[nH]c2n[nH]nc12	0.9%	-2.1%
32	CSc1ccc(CCNC(=O)c2cnn(-c3ccccc3)c2-n2cccc2)cc1	1.2%	-1.5%
33	CCOc1ccc(-c2c(C)nn3c(C)c(C(=O)NCc4ccc(Cl)cc4)cnc23)cc1OCC	3.0%	-7.9%
34	COc1cccc(-c2oc3c(c2C(=O)OCCN2CCCCC2)C(O)CCC3)c1 (stereo not given)	-0.1%	5.0%
35	Cc1cccc(CNC(=O)c2ccc(NC(=O)N3CCSc4ncccc43)cc2)c1	-0.5%	?
36	COc1ccc(CC(=O)N2CCc3cc(OC)c(OC)cc3C2COc2cc(C)cc(C)c2)cc1OC (stereo not given)	-2.6%	-2.1%
37	CCN(CC)S(=O)(=O)c1ccc(NC(=O)c2nn(C)c3c2CSc2ccccc2-3)cc1	1.5%	-3.3%
38	O=S(=O)(Nc1cccc(-c2ccc(N3CCCC3)nn2)c1)c1ccc(F)cc1F	-0.2%	-0.7%
39	COc1cccc(C2C(C(=O)Nc3ccccc3)=C(C)Nc3nc(-c4ccccc4)nn32)c1 (stereo not given)	3.4%	5.4%
40	Cn1c(=O)n(Cc2c(F)cccc2Cl)c(=O)c2c1nc1n2CCN1c1ccc(F)cc1	0.5%	-2.4%

In a second layout: entries from further up.
Values in the order – PINK1 expr mod	ClpP mod
28	Cc1noc(C)c1S(=O)(=O)N(CC(=O)Nc1ccc(F)cc1F)c1ccc(C(C)C)cc1
    5.8%	1.5%
29	O=C(NCc1cccc(Cl)c1)C1CCN(C(=O)c2sccc2-n2cccc2)CC1
    -0.1%	0.5%

The listing continues:
nr	structure	PINK1 expr mod	ClpP mod
41	O=C(CSc1oc(-c2ccccc2)nc1S(=O)(=O)c1ccccc1)c1ccccc1	1.5%	-24%
42	CCCN1CNc2c(c(=O)[nH]c(=S)n2CCc2cccc(OC)c2)C1	0.3%	-1.0%
43	Cc1ccc2c(c1)-c1nc(-c3ccc4c(c3)NC(=O)CO4)cc(-c3ccc(F)cc3)c1CO2	3.2%	?
44	CC(=O)c1ccc(NC(=O)c2sc(-n3nc(C)c(Cc4ccc5c(c4)OCO5)c3C)nc2C)cc1	1.8%	-6.1%
45	O=C(c1ccc(CS(=O)c2ccccc2Cl)o1)N1CCN(c2cccc(C(F)(F)F)c2)CC1 (stereo not given)	1.6%	0.3%
46	C=CCNC(=O)c1cnn2c1NC(=C)C=C2C	0.9%	4.4%
47	Cc1ccc(-n2nc(C(=O)Nc3ccc(F)cc3F)c3c4ccccc4n(C)c3c2=O)cc1	0.7%	-4.8%
48	COC(=O)c1ccc2c(=O)n(CCCCCC(=O)NCc3ccc(Cl)cc3)c(=O)[nH]c2c1	1.0%	-5.6%
49	CCCCC[C@@H](C)N1C[C@H](COCc2ccccc2)Oc2cc(N3CCC[C@H]3C(N)=O)ccc2S1(=O)=O	3.4%	?
50	CCC(Sc1nc2cc(OC)c(OC)cc2c(=O)n1Cc1ccc(Cl)cc1)C(=O)NCCOC (stereo not given)	-0.2%	1.6%
51	Cc1ccc(S(=O)(=O)Nc2cc3c(cc2Cl)n(C)c(=O)c(=O)n3C)cc1	5.0%	-3.4%
52	Clc1ccc(-c2ccc(CNCCSc3nnnn3-c3ccccc3)o2)cc1	0.0%	-16%
53	CCOC(=O)c1ccc(NC(=O)C(Cc2ccccc2)NS(=O)(=O)c2ccc(Br)s2)cc1 (stereo not given)	-0.6%	-2.2%
54	Cc1ccc(N2CC(C(=O)Nc3ccc(Cl)cc3Cl)CC2=O)cc1 (stereo not given)	2.5%	-0.6%
55	Cc1nc2c(C(=O)NCCc3ccccc3)c[nH]n2c(=O)c1Cc1ccccc1F	1.4%	4.1%
56	Cc1ccc(-c2nc(-c3cc4c([nH]c3=O)CC(C)(C)CC4=O)sc2C)cc1	1.9%	-16%
57	CCCCN(C)CCCNC(=O)C1CCN(S(=O)(=O)CC)CC1	1.6%	-0.1%
58	CCOC(=O)c1ccc(NC(=O)CC2C(=O)N(c3ccc(C)cc3)C(=O)N2C2CCCCC2)cc1 (stereo not given)	3.0%	-0.1%
59	CCc1ccc(N2C(=O)CC(c3cc(OC)ccc3OC)C3=C2COC3=O)cc1 (stereo not given)	-3.1%	1.0%
60	COC(=O)[C@@]1(Sc2ccc(C)cc2)CC(=O)N(C(=O)CCc2ccccc2)[C@@H]1c1ccccc1	2.1%	0.7%

Carrying on.
nr	structure	PINK1 expr mod	ClpP mod
61	CCOc1ccc(NC(=O)C(=O)NCCc2sc(-c3ccc(C)cc3)nc2C)cc1	1.5%	-0.7%
62	CCCNC(=O)N1[C@H](c2cccs2)[C@@H](C)C(=O)[C@@H](C)[C@@H]1c1cccs1	0.7%	?
63	COc1ccc(Cl)cc1NC(=O)c1cc2ccc3ccc(C)[nH]c3c2n1	-2.4%	?
64	O=c1c2sc3ccccc3c2n(Cc2ccccc2F)c(=O)n1-c1ccccc1Cl	4.1%	4.4%
65	CCn1cc(C(=O)N(C)Cc2ccccc2)c(=O)c2cc(S(=O)(=O)N3CCCCC3)ccc21	1.3%	-0.9%
66	CCCN(c1ccccc1F)S(=O)(=O)c1cc(-c2cc(C)no2)ccc1C	1.7%	1.4%
67	Oc1c(C(c2ccc(Cl)cc2Cl)N2CCCC2)sc2nc(-c3ccco3)nn12 (stereo not given)	1.7%	1.3%
68	CNS(=O)(=O)c1cn(CC(=O)Nc2ccc(F)cc2F)cc1S(=O)(=O)NC	-1.4%	-0.4%
69	CCC1CN(C(=O)N2CCC(C(=O)NCCc3cc(OC)ccc3OC)CC2)c2ccccc2O1 (stereo not given)	0.4%	-5.7%
70	CCOc1ccccc1NC(=O)CCn1cnnn1	1.4%	-1.2%
71	CC(C)NC(=O)c1ccc(CSc2nc3ccncc3n2Cc2cccc(F)c2)cc1	0.3%	-4.0%
72	COc1ccc2oc(-c3ccc(NC(=O)c4ccc(Cl)cc4Cl)cc3)nc2c1	1.5%	35µM*
73	CCC(Oc1ccccc1)C(=O)Nc1cc(-c2cccc(C)c2)nn1-c1ccccc1 (stereo not given)	3.9%	-5.9%
74	COc1cccc2cc(-c3nc4sc5c(c4c(=O)[nH]3)CCC(C(C)(C)C)C5)c(=O)oc12 (stereo not given)	8.1%	-2.4%
75	COc1cc(NC(=O)Cn2ccc3ccccc3c2=O)cc(OC)c1OC	9.4%	-16%
76	Cc1c(C(N)=O)nnn1-c1ccc(Br)cc1	-1.8%	0.6%
77	O=C(Cc1ccccc1)N(Cc1cccnc1)c1nc2ccc(Cl)cc2s1	-0.4%	-3.0%
78	COc1ccc(C(=O)COC(=O)c2cccc(NC(=O)c3ccc(OC)c(OC)c3)c2)cc1	0.9%	-8.9%
79	CCN(C(=O)c1cc2c(=O)oc3ccccc3c2s1)c1ccc(C)c(C)c1	0.7%	-1.6%
80	Cc1cc(C)nc(-n2nc(C)c3c2NC(=O)CC3c2ccccc2OC(C)C)n1 (stereo not given)	0.4%	-4.0%

More entries follow.
nr	structure	PINK1 expr mod	ClpP mod
81	C=CCc1c(C)nc2nc(SCC(=O)Nc3ccc(OCC)cc3)nn2c1C	0.2%	1.3%
82	Cc1nc2cc(-c3cccc(F)c3)nn2c(C)c1CCC(=O)NC1CCCCC1	1.9%	3.3%
83	COc1ccc(C)cc1S(=O)(=O)Nc1cccc(-c2ccc(N3CCCC3)nn2)c1	3.5%	-0.5%
84	Cc1cc(C)cc(NC(=O)CCS(=O)(=O)c2ccc3c(c2)oc(=O)n3C)c1	1.2%	-0.8%
85	O=C1NC[C@@H](CCCCN2C[C@H](Cc3ccc(O)cc3)N(CCc3ccccc3)C(=O)C2=O)N(CCc2ccccc2)C1=O	0.2%	2.3%
86	CN(C)c1ccc(/C=C/c2ccnc3c(Cl)ccc(Cl)c23)cc1	11%	-3.4%
87	COC[C@H]1CCCN1c1ccc2c(c1)O[C@@H](COCc1ccccc1)CN([C@H](C)c1ccccc1)S2(=O)=O	0.2%	5.6µM*
88	Cc1cccc(C)c1-n1nnnc1C1(C)CCC(=O)N1CCc1ccc(O)cc1 (stereo not given)	-0.2%	0.6%
89	Cc1ccccc1C(=O)Nc1ccc(C(=O)OCc2cc(=O)n3nc(C(C)C)sc3n2)cc1	-0.3%	-9.7%
90	CCOc1ccc(CC(=O)NC2CC(=O)N(c3ccc(C)c(C)c3)C2)cc1 (stereo not given)	-1.0%	-0.7%
91	CC(C)C[C@H]1COc2cc(N3CCC[C@@H]3CO)ccc2S(=O)(=O)N1	0.5%	-5.4%
92	CCOc1ccc(S(=O)(=O)N(CC(=O)Nc2ccc(OC)c(Cl)c2)c2ccccc2)cc1	11%	-4.4%
